Source: PubChem BioAssay (National Center for Advancing Translational Sciences (NCATS))
D2 ag = activates the human D2 dopamine receptor; P14416; activation, % (no concentration beside the values); DiscoveRx PathHunter D2 beta-arrestin, luminescence, 90 min; 100% = 57 uM dopamine signal; actives 0.084% (n = 360,000); AID 624465; in the data active = activation above about 40%; inconclusive = about 15% to 40%; inactive = below about 15%; note: compound concentration not given in the record; the text of the record calls up to 30% inactive
Target sequence (P14416 whole entry, looked up): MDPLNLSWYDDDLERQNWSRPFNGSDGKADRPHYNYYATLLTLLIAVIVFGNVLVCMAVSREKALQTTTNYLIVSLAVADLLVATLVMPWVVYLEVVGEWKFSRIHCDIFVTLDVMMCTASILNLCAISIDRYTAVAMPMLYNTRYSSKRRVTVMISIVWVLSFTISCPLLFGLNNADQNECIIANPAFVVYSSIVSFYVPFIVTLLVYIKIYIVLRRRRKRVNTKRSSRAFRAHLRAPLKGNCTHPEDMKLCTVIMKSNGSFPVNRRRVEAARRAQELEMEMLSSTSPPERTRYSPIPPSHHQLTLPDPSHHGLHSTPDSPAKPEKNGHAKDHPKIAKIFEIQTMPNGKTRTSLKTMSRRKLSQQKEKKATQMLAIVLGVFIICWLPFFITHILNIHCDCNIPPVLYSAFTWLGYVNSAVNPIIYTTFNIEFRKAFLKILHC
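Agonist mode: compounds alone added to overnight-plated D2 PathHunter cells for 90 min at 37 C, with 57 uM final dopamine (EC100) defining full response. Beta-arrestin recruitment detected by chemiluminescent reagent, read after 1 h at ambient temperature.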
gsp antag = antagonists of gsp mutant (McCune-Albright syndrome) | Potency, µM (highest dose often 76.9 µM), inactives show top-dose activity change, negative = inhibition, hits mostly inhibitors | actives 0.4% (n = 340,000) | gsp-mutant cells, cAMP HTRF, 30 min; control for the full effect not named in the record; active = falling curve of any shape with a large fitted effect; inconclusive = falling curve, mostly with a smaller effect; inactive = flat or rising curve; cell line not stated here;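 note: intracellular cAMP measured with PDE inhibitor Ro 20-1724 present during compound exposure; potency is the fitted concentration of half-maximal effect; % is set by controls: 0 for no effect and ±100 for the full control effect; nearly all actives have a fitted effect of over 65% in size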
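Cells in G418 medium, seeded 16-24 h, 37C; buffer exchange to DPBS + 1 mM CaCl2, 0.5 mM MgCl2, 0.05% BSA; cpds in DMSO + […] (300 uM stock), 30 min 37C; HTRF cAMP detection.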
Menin MLL FP FL = inhibitors of human menin-MLL interaction, wild-type MLL peptide | Fluorescence polarization, fluorescein-MLL peptide displacement from menin | FP activity change, % at 61.4 µM | 290,000 tested, under 10 active; inconclusive = falling polarisation curve, or a change in total fluorescence; inactive = total fluorescence flat and polarisation flat or rising; no compound was filed as active; the % refers to the polarisation; negative = inhibition;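 note: % of control where 0% means no effect; inhibitors lower the polarisation; unlabelled MLL peptide was the positive control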
gsp ag = activates gsp, the McCune-Albright syndrome mutation | AID 624287 | gsp mutant cells, cAMP HTRF, 30 min; control for the full effect not named in the record | actives 0.13% (n = 340,000) | Potency, µM (titrated, usually from 76.9 µM), without a hit: at the top dose activation (cAMP increase), actives largely listed as activators; active = well fitted activation curve with a large enough effect; inconclusive = small, poorly fitted or top-dose-only effect, or another doubt; inactive = no such curve, though single readings can be large or run the other way; cell line not stated here;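 note: phosphodiesterase inhibitor Ro 20-1724 added with compounds to block cAMP breakdown; potency is the fitted concentration of half-maximal effect; nearly all actives have a fitted effect of over 60% in size; about a fifth of the inactives were tested at one dose only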
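Cells stably selected in G418 were plated at 2000/well, grown 16-24 hr, then given compounds in DMSO with the PDE inhibitor […] (300 uM solution added) for 30 min at 37C; cAMP was read by HTRF.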
ClpP mod = qHTS Assay for Activators of ClpP; purified B. subtilis ClpP, FRET peptide cleavage, 20 min; Potency, µM (series often up to 57.5 µM), without a hit: at the highest dose activity change, negative = active; actives 1.9% (n = 340,000); AID 651965, 2013; active = well fitted falling curve with a large enough effect; inconclusive = small, poorly fitted or top-dose-only effect; inactive = no such curve, though single readings can be large or run the other way; note: potency is the fitted concentration of half-maximal effect; the source files actives as falling curves though it sought activators and does not explain the sign; nearly all actives have a fitted effect of over 65% in size; many hits overshoot -100%
Target sequence (P80244 whole entry, looked up): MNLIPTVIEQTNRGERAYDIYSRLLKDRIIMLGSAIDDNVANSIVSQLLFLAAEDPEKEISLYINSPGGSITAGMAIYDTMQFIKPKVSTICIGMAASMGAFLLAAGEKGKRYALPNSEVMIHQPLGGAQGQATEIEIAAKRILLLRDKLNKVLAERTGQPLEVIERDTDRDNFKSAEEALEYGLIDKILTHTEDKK
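Purified B. subtilis ClpP, 10 microg/mL final in Tris/HCl pH8 with KCl, BSA, glycerol and Tween-20, cleaved an Abz/nitrotyrosine-quenched decapeptide. Fluorescence (ex 320, em 430) was read at 0 and 20 min at room temperature. Delta was normalized to 5.8 microM ADEP and DMSO/no-enzyme controls.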
PINK1 modulator = changes PINK1 expression. AID 624263. actives 0.2% (n = 410,000). Potency, µM (titrated, usually from 76.6 µM), for inactives: at the top dose activation (PINK1 increase), most hits filed as activators. PINK1 immunofluorescence, high-content cytometry, 24 h; active = well fitted activation curve with a large enough effect; inconclusive = small, poorly fitted or top-dose-only effect; inactive = flat fitted curve, though single readings scatter; cell line not stated here;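 note: potency is the fitted concentration of half-maximal effect; % of control where 0% means no effect; nearly all actives have a fitted effect of over 65% in size; a mitochondrial uncoupler was the plate control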
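Compound titrations (5 concentrations, 24 h) on a stable cell line; DMSO and CCCP controls. Endpoint: fixed-cell PINK1 immunofluorescence with mitochondrial, cell and nuclear markers, scanned by microplate cytometer.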
Sfp PPTase inh = inhibitors of Bacillus subtilis Sfp phosphopantetheinyl transferase; actives 3.5% (n = 310,000); AID 1490; Biochemical Sfp PPTase activity, qHTS; Q9F4F7; Potency, µM, for inactives: max response, negative = inhibition, hits mostly inhibitors; active = well fitted inhibition curve with a large enough effect; inconclusive = small, poorly fitted or top-dose-only effect, or another doubt; inactive = no such curve, though single readings can be large or run the other way;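 note: the enzyme is Sfp with the accession as filed and its product quenches rhodamine fluorescence; potency is the fitted concentration of half-maximal effect; 0% = enzyme reaction without inhibitor and -100% = no enzyme wells; top concentration of the series not given in the record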
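Fluorescence-quenching assay: 15 nM Sfp-PPTase preincubated 15 min at room temperature with compound, then 5 uM rhodamine-CoA and 12.5 uM BHQ-2-labelled YbbR peptide added. Fluorescence (ex 525/em 598 nm) read at start and after 30 min; difference gives rate.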
* marks the source's active call; other numbers are inactive results; ? = inconclusive; · = not tested or not shown; & = joins results of further samples; [ ] = another dose, or the depositor's remark.

SMILES	D2 ag	gsp antag	Menin MLL FP FL	gsp ag	ClpP mod	PINK1 modulator	Sfp PPTase inh
CCC(CO)NCC(O)COCc1ccc2c(c1)OCO2 (stereo unspecified)	-2.1	8%	-0.1	-29%	1.9%	1.5%	-27%
O=C(CC1(CC2=NS(=O)(=O)c3ccccc3N2)CCCC1)NCCc1ccccc1	0.7	-22%	1.7	-35%	0.5%	4.0%	3%
N#Cc1cc2ccccc2nc1SCc1cccnc1	3.8	1%	5.4	46%	-1.5%	-4.7%[38.3 µM]	-2%
COc1ccccc1OCCNC(=O)CCC(=O)N1CCOCC1	-4.0	10%	·	?	1.4%	0.4%	·
COc1ccc(S(=O)(=O)N2CCCCC2)cc1C(=O)NC1CCS(=O)(=O)C1 (stereo unspecified)	-0.8	·	·	-37%[inhibitor]	0.1%&2.1%	?	·
O=C(CNS(=O)(=O)c1ccc(Br)s1)N1CCCC1	-1.0	2%	2.7	-64%[inhibitor]	-1.1%	-0.4%	8%
O=c1ccc(S(=O)(=O)N2CCCC2)cn1Cc1nc(-c2ccc(F)cc2)no1	13	-24%	·	?	-1.2%	1.9%	·
Cc1ccc(C2Nc3ccccc3NC3=C2C(=O)CC(C)(C)C3)c(O)c1 (stereo unspecified)	1.6	-3%	4.1	20%	·	-1.9%	14%
C=CCn1c(CCNC(=O)c2ccccc2F)nnc1SCc1nc2ccccc2c(=O)[nH]1	-3.4	-3%	0.6	5%	0.8%	?	12%
CCCC(=O)N(Cc1cc(=O)[nH]c2ccccc12)c1ccccc1OC	2.2	-10%	-5.6	3%[15.4 µM]	·	0.8%	-8%

Compound profiles (already shown). Screens in order: D2 ag, gsp antag, Menin MLL FP FL, gsp ag, ClpP mod, PINK1 modulator, Sfp PPTase inh
Results for `O=c1ccc(S(=O)(=O)N2CCCC2)cn1Cc1nc(-c2ccc(F)cc2)no1` = 13, -24%, ·, ?, -1.2%, 1.9%, ·
Results for `O=C(CNS(=O)(=O)c1ccc(Br)s1)N1CCCC1` = -1.0, 2%, 2.7, -64%[inhibitor], -1.1%, -0.4%, 8%

Remaining list, next part.
SMILES	D2 ag	gsp antag	Menin MLL FP FL	gsp ag	ClpP mod	PINK1 modulator	Sfp PPTase inh
Cc1ccc(NC(=O)CCC(=O)OCCCC(F)(F)C(F)(F)F)cc1	-1.4	3%	-0.8	-27%	0.7%	3.5%	23%
Nn1c(Cc2ccc(Br)cc2)n[nH]c1=S	3.1	3%	-1.5	-4%	·	0.9%	35µM*
Cc1cc(C)c(S(=O)(=O)Nc2ccc3c(c2)CCC3)c(C)c1	-2.1	5%	-5.9	-14%[15.4 µM]	0.7%	-2.6%	7%
O=C(COc1cc(F)ccc1[N+](=O)[O-])Nc1ccc(N2CCCCC2)cc1	-2.5	-11%	·	-8%[15.4 µM]	-2.7%	9.4%	·
O=C(Cn1cc(S(=O)(=O)Cc2cccc([N+](=O)[O-])c2)c2ccccc21)N1CCOCC1	-2.7	1%	·	12%[15.4 µM]	-1.2%	5.1%	4%
O=S(=O)(NC1CC2CCC1C2)c1ccc2c(c1)OCCO2 (stereo unspecified)	-1.3	9%	-2.7	-17%	-4.5%	-0.8%	5%
CC(C)CNC(=O)CSc1nnc2ccccn12	0.7	11%	-2.7	6%	·	1.4%	18%
O=C(O)CC/C(=N/NC(=O)c1cn(-c2ccccc2)nc1-c1ccccc1)C(=O)O	1.3	-13%	6.4	13%	-1.9%	5.9%	-17%
Cc1cc(Br)ccc1NC(=O)CN(C)C(=O)COc1cccc2c1OC(C)(C)C2	0.0	1%	·	4%[15.4 µM]	1.7%	0.0%	·
O=C(NCc1cccs1)c1cc(-c2ccc(O)cc2)on1	-2.0	11%	-2.1	2%	-2.4%	-0.4%	?
CCOC(=O)CC1=NN(c2ccccc2)C(=O)/C1=C\c1ccc(OC)cc1OC	-1.7	-15%	4.3	0%[15.4 µM]	·	30%	-17%
O=C1C2CC=CCC2C(=O)N1n1cnnc1 (stereo unspecified)	-4.8	17%	-2.5	2%	1.9%	0.9%	17%
COc1cccc(CN2CCC(C(=O)Nc3ccc(-c4cccc(C)c4)cc3)CC2)c1O	-2.8	-1%	4.2	-26%	-3.6%	0.0%	?
CCCSc1nnc(Cn2c(=O)sc3ccccc32)n1C	-3.5	2%	1.0	-42%[inhibitor]	0.6%	-1.6%	16%
CS(=O)(=O)N1CCN(C(=O)Cc2ccccc2)CC1	-2.0	9%	-1.0	3%	1.6%	4.0%	14%
CC1CC(C)(C)CC2(C1)NC(=O)N(CC(=O)N1CCN(S(=O)(=O)c3cccs3)CC1)C2=O (stereo unspecified)	2.8	7%	·	5%	-2.0%	1.8%	·
CC(=O)N1CCCN(C(=O)c2ccc3nc(Cc4cccc(Cl)c4)oc3c2)CC1	-3.0	2%	-14	-8%	-5.9%	0.6%	0%
O=C(Nc1nnc(SCc2ccccc2)s1)c1ccco1	-0.9	16%	6.2	11%	-2.2%	-1.3%	10%
O=C(NC1CCCCC1)n1c(=O)oc2cc(S(=O)(=O)N3CCCCC3)ccc21	-3.0	-6%	-1.2	-32%	-1.2%	?	7%
CCc1nonc1NC(=O)c1oc2ccc(F)cc2c1C	-28	4%	-4.9	-3%	-7.7%&-4.1%	1.5%&5.6%	1%
CCc1cc(CN2CCOCC2)c(NC(=O)c2ccccc2)s1	-4.9	-9%	6.0	-14%[15.4 µM]	-8.9%	-0.8%	-12%
O=C(Nc1ccncc1)c1ccc(Br)cc1	-2.4	-5%	5.6	?	1.9%	-2.5%	17%
COc1ccccc1NS(=O)(=O)c1cc(NC(=O)c2ccccc2C)ccc1N1CCOCC1	-1.6	3%	·	-14%	-9.7%	1.5%	·
COc1ccc(C(=O)NC(C(=O)NCC2(N3CCCCC3)CCCCC2)C(C)C)cc1 (stereo unspecified)	3.3	8%	·	-25%	-1.6%	-0.2%	·
O=C(CC(NS(=O)(=O)c1ccc(Cl)cc1)c1ccco1)NC1CCCC1 (stereo unspecified)	?	8%	-0.9	-17%	-0.9%	0.9%	2%
Cc1nnc(Nc2ccccn2)c2ccccc12	-2.5	28%	4.2	-53%[inhibitor]	-2.0%	4.0%	-1%
O=C(N/N=C\c1cccc(Br)c1)c1ccccc1-n1cccc1	-4.4	-15%	4.4	-7%	0.5%	-0.4%	8%
NC(=O)c1ccc(-c2nnn(CC(=O)Nc3cccc(S(=O)(=O)N4CCCC4)c3)n2)cc1	0.7	10%	·	-1%	1.6%	3.9%	·
O=C(Nc1nccs1)c1ccc2sc([C@H]3C[C@H](O)[C@@H](CO)O3)nc2c1	1.2	·	·	·	0.5%	0.2%	·
CCc1c(C)sc(NC(=S)N2CCN(CC)CC2)c1C(=O)OC	1.6	3%	1.6	?	·	11%	-4%
Cn1c(SCC(=O)Nc2nc(C(C)(C)C)cs2)nnc1C1CC1	-3.5	0%	0.7	3%	2.9%	5.8%	5%
COc1ccccc1CN1CC(C(=O)NCc2nc3ccccc3n2C)CCC1=O (stereo unspecified)	-1.5	2%	·	2%	0.4%	-0.7%	16%
CC(C)(C)[C@@H]1COC(=O)[C@@H](Cc2ccc(F)cc2)C/C=C\C[C@H](CC(=O)N(CCO)Cc2ccccc2)C(=O)N1	0.3	-24%	·	·	-1.9%	1.3%	·
CCNc1c(NCC)c(=O)c1=O	-0.8	-9%	4.8	46%[15.4 µM]	-5.0%	1.0%	14%
O=C(C1=C[C@H](C2CC2)C[C@H](OCCCCO)O1)N1CCN(Cc2ccccc2)CC1	-0.4	6%	-0.3	·	-2.4%	1.2%	3%
COc1cccc(OCCSc2nc(N)cc(N)n2)c1	-3.5	-13%	2.3	23%	1.0%	-0.6%	-6%
[O-][N+](=C(c1ccccc1)c1ccccc1)c1ccccc1	0.7	-4%	·	0%	·	1.8%	·
COc1ccc(S(=O)(=O)N2CCN(C(=O)C3CC3)CC2)cc1Br	-1.4	18%	·	-3%	0.9%	4.6%	·
FC(F)(F)c1cccc(/C=N/NC(=S)NC2CCCCC2)c1	-2.0	-11%	0.7	-4%[15.4 µM]	·	4.2%	13%
COc1cc(Cl)c(C)cc1NC(=S)NN	-4.3	-20%	11	6%[15.4 µM]	·	4.6%	35µM*
CCOc1cc(C(c2c(C)[nH][nH]c2=O)c2c(C)[nH][nH]c2=O)ccc1OC(=O)c1cccc([N+](=O)[O-])c1	-1.3	1%	1.0	19%	0.4%	1.6%[38.3 µM]	1%
COCCN(CC(=O)Nc1cccc(C)c1C)C(=O)c1cc(S(=O)(=O)N2CCCC2)ccc1C	-1.8	0%	·	16%	2.0%	1.3%	·
Cc1ccnc(N2CCCC(C(=O)Nc3nnc(C)s3)C2)n1 (stereo unspecified)	-0.9	1%	-0.7	?	?	-1.4%[38.3 µM]	1%
COc1ccccc1-c1nnc(SCC(=O)NNC(=O)c2ccccc2F)n1C	9.5	12%	·	-23%	0.4%	-0.4%	·
Cc1cc(C(=O)CSc2nc3ccccc3n2CCC#N)c(C)n1Cc1cccs1	-0.3	-4%	5.3	-53%[inhibitor]	-0.2%	11%[38.3 µM]	-4%
COc1ccc(S(=O)(=O)N2CCCC2)cc1C(=O)N1CCOCC1	-0.1	0%	-1.6	2%	·	2.3%	16%
Cc1cc(NC(=O)CSCC(=O)OC(C)C(=O)N(C)Cc2ccccc2)no1 (stereo unspecified)	-2.7	-5%	·	7%[15.4 µM]	·	-1.1%	·
CN(C(=O)COc1cc(=O)n(C)c2ccccc12)c1ccc(Cl)cc1	-1.7	2%	1.3	12%	-8.4%	0.4%	3%
O=C(CCc1nnc(Cc2ccc3c(c2)OCO3)o1)N(CC1CCC1)CC1CCCO1 (stereo unspecified)	-0.1	5%	2.2	-36%[inhibitor]	-0.2%	2.7%	8%
O=C(CCCN1C(=O)/C(=C/c2ccco2)SC1=S)Nc1cccc(C(=O)O)c1	2.0	7%	?	10%[15.4 µM]	·	1.4%	25µM*
